eIF4H FP inh: inhibitors of RNA binding by human eIF4H. eIF4H fluorescence polarization binding assay. AID 2012. inhibition, % at 35 µM. 0.94% of 290,000 active;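 active = 50% or more with normal probe brightness, or confirmed in later tests; inconclusive = above 50% with abnormal brightness, or retests that disagree; inactive = below 50% or failed in later tests; about a fifth of its hits are not listed in these tables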;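 also: calls also rest on retests at 20 µM and on dose response follow-up; 0% = protein and probe with vehicle and 100% = probe without protein; strong numbers were not always called active; many hits fall short of the cut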
PABP polyA inh: blocks human PABP binding to poly(A) RNA. fluorescence polarization. P11940. AID 2014. inhibition, % at 35 µM. 1% of 290,000 active;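 active = 50% or more with normal probe brightness, or confirmed in later tests; inconclusive = above 50% with abnormal brightness, or retests that disagree; inactive = below 50% or failed in later tests; about a fifth of its hits are not listed in these tables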;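 also: calls also rest on retests at 20 µM and on dose response follow-up; controls were probe without protein and protein plus probe with vehicle; some compounds called inactive have numbers as strong as hits; many hits fall short of the cut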
Env fusion inh: HIV envelope-mediated fusion inhibition; HeLa-JRFL Env/CEM21 cell fusion, luciferase; inhibition, % at 12.3 µM; 1.1% of 360,000 active; AID 651610;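 active = mean replicate inhibition score of at least 50 and every replicate individually at or above 50; inconclusive = only one of the two criteria met; inactive = mean below 50 and not all replicates reaching 50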;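 also: 0% = plate neutral controls and 100% = maraviroc near 300 nM; one replicate is shown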
CSC inhib: cancer stem cell inhibition | cancer stem cell-like cells viability, luminescence | 1.1% of 300,000 active | inhibition, % at 7.5 µM;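 active = mean at 75% or more and at least half the replicates too; inconclusive = mean and replicates disagree; tested in HMLE shEcad cells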;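 also: 0% = median of negative and 100% = median of positive control wells; the first replicate is given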
MT1-MMP act inh: inhibitors of human MT1-MMP activation | P50281 | HT1080 RFP-PRO-GFP cells, GFP/RFP ratio fluorescence, overnight; percent of plate control window, DMSO zero | GFP/RFP ratio change, % at 20 µM | 0.061% of 360,000 active;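 active = GFP/RFP ratio change of at least 30% with cell ATP level not reduced by more than half and red fluorescence within 50% of control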; also: strong numbers were not always called active
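Material: RFP-PRO-GFP reporter HT1080 cells. Dosing: single-point 20 µM compound, 1% DMSO. Controls: DMSO and RFP-L50D-GFP cell wells. Timing: cells overnight before dosing, compound overnight, 37 °C, 5% CO2. Measure: GFP/RFP fluorescence ratio.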
Rce1 inh: inhibitors of yeast Ras-converting enzyme | Q03530 | calls only | yeast membranes, quenched prenylated peptide cleavage fluorescence | 0.27% of 290,000 active;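 active = fall in fluorescence gain of 50% or more versus controls, with final raw signal at or below 3038400; inconclusive = same 50% fall but final raw signal above 3038400; inactive = fall in fluorescence gain under 50%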;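 also: plate controls were neutral control wells for no effect and wells lacking membranes for full effect; tested at 10 µM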
Target sequence (Q03530 whole entry, looked up): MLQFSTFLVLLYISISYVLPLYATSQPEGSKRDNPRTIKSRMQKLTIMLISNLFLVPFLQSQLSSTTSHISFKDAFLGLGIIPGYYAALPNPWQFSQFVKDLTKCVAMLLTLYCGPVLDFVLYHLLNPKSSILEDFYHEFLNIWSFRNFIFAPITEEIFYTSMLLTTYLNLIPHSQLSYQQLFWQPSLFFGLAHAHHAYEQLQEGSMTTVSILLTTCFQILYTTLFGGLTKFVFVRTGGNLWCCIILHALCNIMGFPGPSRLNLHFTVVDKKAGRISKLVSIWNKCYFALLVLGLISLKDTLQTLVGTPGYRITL
Yeast UUG start: alters start codon recognition fidelity in yeast | S. cerevisiae UUG-firefly luciferase reporter, luminescence/redox ratio | activity score, % at 18.7 µM | 0.13% of 350,000 active;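 active = replicate mean at a twofold rise or more, about +100% in these data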;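 also: firefly luciferase made from a UUG start codon reports start codon fidelity; reporter light over untreated wells divided by growth signal over untreated wells; some hits fall short of that in this replicate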
eIF4H FP inh retest: further read-out of eIF4H FP inh, marked with its call; inhibition, %; compound at 20 µM; confirmation average;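 mean of two retest wells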
PABP polyA inh retest: further read-out of PABP polyA inh, marked with its call; inhibition, %; compound at 20 µM; confirmation repeats;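 mean of two retest wells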
MT1-MMP act inh RFP: recorded beside MT1-MMP act inh, whose call it bears; RFP signal change, %; measured here: RFP expression control read;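 0 = vehicle wells; hits needed this value within 50% of zero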
Active calls of the source: *; i = inactive; ? = inconclusive; · = no result given; & = joins results of further samples. A portion of the library, so the mix of outcomes need not match the whole.

SMILES	eIF4H FP inh	PABP polyA inh	Env fusion inh	CSC inhib	MT1-MMP act inh	MT1-MMP act inh RFP	Rce1 inh	Yeast UUG start	others
O=C(Nc1nc2ccccc2[nH]1)c1ccc(S(=O)(=O)N2CCOCC2)cc1	-2	2	-14	-17	-1	-3	i	·
N#Cc1ccccc1S(=O)(=O)N1CCN(C(=O)C2CCCC2)CC1	1	14	18	1	0	2	i	1
Cc1ccc(-c2nn3c(-c4ccco4)nnc3c3ccccc23)cc1S(=O)(=O)NCC1CCCO1 (stereo not drawn)	-2	31	4	-10	13	-7	i	-16
CCCn1nc(C(=O)NC2CCCc3ccccc32)c2ccccc2c1=O (stereo not drawn)	5	-9	50	-1	-7	-7	i	-3
Cc1c(C(=O)N2CCCC2)nnn1-c1nonc1N	3	2	i	1	3	4	i	-32
O=C(c1cccc([N+](=O)[O-])c1)N1CCN(c2ncccn2)CC1	-5	-13	-10	3	-2	1	i	-20
C=C(CC[C@@H](O)C(C)(C)O)[C@H]1CC[C@]2(C)[C@@H]1CCC1[C@@]3(C)CCC(=O)C(C)(C)C3CC[C@]12C (stereo partly drawn)	·	·	-3	109*	-1	-2	·	-12
COc1ccccc1CN1CC(C(=O)N(Cc2cnn(C)c2)C(C)C)CCC1=O (stereo not drawn)	-6	-7	-12	-6	-2	0	i	6
COc1ccc(C(=O)Cn2cnc3ccccc3c2=O)c(OC)c1	37	5	-39	-8	-3	1	i	0
COc1ccc(/C=N/Nc2ncnc3sc(C)c(C)c23)cc1	1	-1	-9	5	4	7	i	·
COc1ccc(C(C(O)C(=O)c2c[nH]c3ccccc23)N2CCN(c3ccccc3)CC2)cc1 (stereo not drawn)	3	-9	?	22	8	-5	i	-6
CC1=NN2C(=N)/C(=C\c3cc(C)n(-c4ccc(C)cc4)c3C)C(=O)N=C2S1	-6	12	-6	-4	-1	0	i	5
Cn1c(-c2ccc(Br)o2)nc2cc(Br)ccc21	-7	-6	·	17	7	-3	i	-16
CC(=O)Nc1ccc(S(=O)(=O)N2CCC(n3cnc4cc(F)ccc43)CC2)cc1	-7	-9	20	-6	2	1	i	-20
Cc1ccc(CNC(=O)c2ccc(Br)o2)cc1	16	6	·	0	6	-5	i	13
Cc1[nH]c2ccc(F)cc2c1CCN1C(=O)OC(C)(C)C1(C)O (stereo not drawn)	-14	-13	3	9	2	2	i	9
CCCN1CCN(CCCNC(=O)CN2C(=O)COc3ccccc32)CC1	14	11	·	0	0	2	i	-17
CCc1ccc(S(=O)(=O)NCC(O)COc2ccc(OC)cc2)cc1 (stereo not drawn)	0	-3	6	20	-1	-5	i	2
N#Cc1ccccc1S(=O)(=O)N1CCN(c2nc(-c3cccnc3)nc3ccccc23)CC1	·	·	0	·	-7	-3	·	-9
COc1ccc(Br)cc1CNc1ccc(S(N)(=O)=O)cc1	-5	16	·	-13	1	-1	i	·
COC(=O)c1cc(-c2ccccc2)n[nH]1	-11	8	-69	-13	-2	2	i	2
COC(=O)CC1C(=O)NCCN1C(=O)CSc1nc2ccccc2s1 (stereo not drawn)	7	-1	-7	-20	-3	0	i	·
C[C@@H]1CN([C@H](C)CO)C(=O)CCCn2cc(nn2)CO[C@H]1CN(C)C(=O)Nc1ccnc(N2CCOCC2)c1	·	·	-4	·	0	0	·	-6&20
Cc1[nH]c2ccc(C(=O)N3CCN(c4cccc(Cl)c4)CC3)cc2c1C	-9	-5	14	65	0	1	i	·
COc1cc(OC)cc(C(=O)Nc2cc(NC(=O)c3ccco3)ccc2OC)c1	3	-13	6	-2	2	-1	i	-18

Sorted by length of the SMILES (highest first): some entries from above.
SMILES	eIF4H FP inh	PABP polyA inh	Env fusion inh	CSC inhib	MT1-MMP act inh	MT1-MMP act inh RFP	Rce1 inh	Yeast UUG start	others
Cc1ccc(-c2nn3c(-c4ccco4)nnc3c3ccccc23)cc1S(=O)(=O)NCC1CCCO1 (stereo not drawn)	-2	31	4	-10	13	-7	i	-16
COc1ccc(C(C(O)C(=O)c2c[nH]c3ccccc23)N2CCN(c3ccccc3)CC2)cc1 (stereo not drawn)	3	-9	?	22	8	-5	i	-6
N#Cc1ccccc1S(=O)(=O)N1CCN(c2nc(-c3cccnc3)nc3ccccc23)CC1	·	·	0	·	-7	-3	·	-9
CC(=O)Nc1ccc(S(=O)(=O)N2CCC(n3cnc4cc(F)ccc43)CC2)cc1	-7	-9	20	-6	2	1	i	-20
O=C(Nc1nc2ccccc2[nH]1)c1ccc(S(=O)(=O)N2CCOCC2)cc1	-2	2	-14	-17	-1	-3	i	·
COc1cc(OC)cc(C(=O)Nc2cc(NC(=O)c3ccco3)ccc2OC)c1	3	-13	6	-2	2	-1	i	-18
O=C(c1cccc([N+](=O)[O-])c1)N1CCN(c2ncccn2)CC1	-5	-13	-10	3	-2	1	i	-20
N#Cc1ccccc1S(=O)(=O)N1CCN(C(=O)C2CCCC2)CC1	1	14	18	1	0	2	i	1
CCc1ccc(S(=O)(=O)NCC(O)COc2ccc(OC)cc2)cc1 (stereo not drawn)	0	-3	6	20	-1	-5	i	2
COC(=O)CC1C(=O)NCCN1C(=O)CSc1nc2ccccc2s1 (stereo not drawn)	7	-1	-7	-20	-3	0	i	·
COc1ccc(C(=O)Cn2cnc3ccccc3c2=O)c(OC)c1	37	5	-39	-8	-3	1	i	0
COc1ccc(/C=N/Nc2ncnc3sc(C)c(C)c23)cc1	1	-1	-9	5	4	7	i	·
Cn1c(-c2ccc(Br)o2)nc2cc(Br)ccc21	-7	-6	·	17	7	-3	i	-16
Cc1ccc(CNC(=O)c2ccc(Br)o2)cc1	16	6	·	0	6	-5	i	13

Other structures follow:
SMILES	eIF4H FP inh	PABP polyA inh	Env fusion inh	CSC inhib	MT1-MMP act inh	MT1-MMP act inh RFP	Rce1 inh	Yeast UUG start	others
CCOc1cc2[nH]c(=S)n(CCCC(=O)NCc3ccco3)c(=O)c2cc1OCC	-5	5	·	-7	-1	1	i	-2
CC(OC(=O)c1cc(S(=O)(=O)Nc2ccc(F)cc2)ccc1Cl)C(=O)Nc1ccc2c(c1)OCCO2 (stereo not drawn)	-3	5	·	-26	0	-3	i	·
CC(C)C(=O)OCC(=O)NCc1ccccc1Cl	0	14	4	0	4	7	i	·
O=C(c1ccccc1)N1CCN(C2CCCCCC2)CC1	2	20	·	8	3	5	i	21
CCOc1ccc(NC(=S)N(Cc2ccc(Cl)cc2)Cc2ccco2)cc1	3	2	-55	·	-5	-8	i	-11
COc1ccc(-c2ccc3oc(-c4ccsc4)cc(=O)c3c2)cn1	·	·	-174	22	6	-2	·	-19
COc1ccc(CCN2C(=O)CC(Cc3cccc(C)c3)C2=O)cc1OC (stereo not drawn)	-10	-16	9	-16	-3	-7	i	·
COC(=O)c1c(NC(=O)CN2CCN(c3cccc(Cl)c3)CC2)sc(C)c1C	-12	-5	-10	·	-2	-5	i	-12
COc1cc(C(O)c2nc(-c3ccc(F)cc3OC)cs2)ccc1F (stereo not drawn)	·	·	11	·	0	-7	·	-10
CC(C)Oc1cccc(C(=O)C2CCCN(C(=O)c3cncs3)C2)c1 (stereo not drawn)	-17	8	4	1	5	0	i	-15
CCN(Cc1nc(-c2ccc(OC)c(OC)c2)no1)C(=O)c1ccoc1C	-3	2	12	-3	1	2	i	3
COc1ccccc1Nc1ncc(C(=O)N2CCN(Cc3ccc(OC)c(OC)c3OC)CC2)c2ccccc12	-2	2	4	2	5	-7	i	·
CN(C(=O)c1cccc(C(F)(F)F)c1)C1CCCc2ccccc21 (stereo not drawn)	-14	-6	2	0	-3	-4	i	15
NC(=O)C1CCN(CC(O)CSc2ccc(F)cc2)CC1 (stereo not drawn)	7	4	·	-2	1	2	i	-2
Cc1ccc(N=C2SCCCN2C(=O)c2cccc(N3C(=O)CCC3=O)c2)cc1Cl	·	·	-7	·	3	3	i	0
COc1ccccc1OCC(=O)Nc1ccc(-c2nnc(-c3ccco3)o2)cc1	-5	-5	-11	-9	3	-1	i	-25
O=C(Nc1c2c(nn1-c1ccc(F)cc1)CS(=O)(=O)C2)C12CC3CC(CC(C3)C1)C2	-5	8	·	-8	5	1	i	-7
CC(=O)N1CCN(C(=O)C2(NC(=O)Nc3cccc(F)c3)CCCCC2)CC1	22	52	6	-7	1	-1	i	·	eIF4H FP inh retest=-15;PABP polyA inh retest=16
CC(C)C(=O)Nc1ccccc1Cc1ccccc1	-11	-3	14	-4	5	-1	i	-13
CCN(CC)C1=CC(=O)OC12CCCCC2	0	-1	-55	-19	1	3	i	-17
O=c1[nH]c(Cc2cccs2)nc2ccccc12	-2	-6	13	·	-2	1	i	-18
O=C(Nc1cccc(N2CCCC2)c1)c1cccs1	-12	-5	·	-16	-3	4	i	-11
O=C(/C=C/c1ccc(Cl)cc1Cl)N(Cc1ccccc1)C1CCS(=O)(=O)C1 (stereo not drawn)	-8	2	28	-2	-2	-3	i	-17
O=C(O)C1CCN(C(=O)c2ccccc2Cl)CC1	-2	-3	-68	4	6	3	i	-6
COc1ccccc1N1CCN(C(=O)CSc2nnc(NC(=O)C3CC3)s2)CC1	-10	4	-39	-17	-1	0	i	-8
More compounds:
SMILES	eIF4H FP inh	PABP polyA inh	Env fusion inh	CSC inhib	MT1-MMP act inh	MT1-MMP act inh RFP	Rce1 inh	Yeast UUG start	others
CC1CCN(S(=O)(=O)c2ccc3nc(N4CCN(c5ccccc5)CC4)ccc3c2)CC1	-5	11	7	-3	·	·	i	·
CN(C)/C=N/N(C)c1ncccc1[N+](=O)[O-]	8	11	27	3	3	-2	i	2
COc1ccc(C)cc1NC(=O)CCN1CCCC1	-5	-4	-14	-9	6	3	i	-10
COC(=O)CNC(=O)c1cccc(-c2ccc(OC)cc2)c1	7	-4	-1	·	4	4	i	·
CCOC(=O)c1sc(NC(=O)CN2C(=O)NC3(CC(C)CC(C)(C)C3)C2=O)cc1C (stereo not drawn)	·	·	6	43	-5	-7	i	·
Clc1ccc2nc(-c3ccccc3)nc(C(Cl)Cl)c2c1	-3	8	-31	·	-26	-30	·	-21
O=C(c1cc(-c2ccc(Cl)cc2Cl)on1)N1CCN(C(=O)c2ccco2)CC1	-10	-6	·	·	-7	-3	i	-6
Cc1cc(C)n(-c2ccc(C(=O)NCc3ccc(F)cc3)cc2)n1	8	1	-7	-5	1	3	i	-17
C=CCOc1ccc(C2c3c(oc4ccccc4c3=O)C(=O)N2CCCN2CCOCC2)cc1 (stereo not drawn)	0	-12	·	-13	-7	1	i	-6
CC(C)(C)c1cc(NC(=O)c2cc(F)c(F)c(F)c2F)no1	-4	-1	·	·	-1	1	i	·
Nc1nc(NCCN2CCOCC2)nc(NCc2ccccc2)c1[N+](=O)[O-]	-5	-2	0	5	-4	-2	i	-15
O=C(NCc1ccccc1)c1c[nH]c2cc3c(cc2c1=O)OCCO3	-11	19	-67	5	3	1	i	-14
CCOC(=O)c1nnn(-c2nonc2N)c1CSc1nnc(N)s1	-6	2	2	-4	6	7	i	·
Cc1c(CN2CCC(Oc3ccc(C(=O)N4CCCCC4)cc3)CC2)cnn1C	3	0	-9	14	-2	2	i	4
COc1ccc2c(Cl)cc(NC(=O)Nc3c(C)cccc3C)nc2c1	·	·	2	·	-4	-5	·	-6
O=C(NCCOC(=O)c1ccc(Cl)c(S(=O)(=O)N2CCCCC2)c1)c1ccncc1	0	-8	·	-4	1	-2	i	-9
